Screening results (PubChem)
VDR inh: inhibitors of human vitamin D receptor | AID 504847 | VDR-SRC2-3 peptide fluorescence polarization, 2 h | P11473 | Potency, µM, for the others: max response, negative = inhibition, usual class: inhibitors | hit rate 0.93% among 400,000; active means well fitted inhibition curve with a large enough effect; inconclusive means small, poorly fitted or top-dose-only effect, or another doubt; inactive means no such curve, though single readings can be large or run the other way; further: series mostly up to about 120 µM
Target sequence (P11473 whole entry, looked up): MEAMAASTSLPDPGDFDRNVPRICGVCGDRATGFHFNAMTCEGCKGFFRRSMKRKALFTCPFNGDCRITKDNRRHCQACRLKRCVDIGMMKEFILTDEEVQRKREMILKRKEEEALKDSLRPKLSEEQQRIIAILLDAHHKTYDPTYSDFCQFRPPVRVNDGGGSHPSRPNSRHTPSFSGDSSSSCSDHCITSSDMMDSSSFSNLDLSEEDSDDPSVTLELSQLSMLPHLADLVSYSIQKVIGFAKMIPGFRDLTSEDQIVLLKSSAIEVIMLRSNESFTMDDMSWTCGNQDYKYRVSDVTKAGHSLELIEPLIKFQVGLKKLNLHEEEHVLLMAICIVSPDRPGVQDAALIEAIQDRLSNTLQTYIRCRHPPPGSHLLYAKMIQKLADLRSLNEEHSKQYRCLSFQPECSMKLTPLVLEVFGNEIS
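Measured by FP: displacement of SRC2-3 coactivator peptide from VDR by library compounds, following a two-hour ambient incubation.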
The depositor's hits bear a star; ? = inconclusive; & = joins results of further samples; [ ] = dose if it differs, or a comment. On the % scale 0 is the no-effect control and ±100 the full control effect; potency means the concentration at half of the fitted maximal effect. Not all compounds are listed, so the mix of outcomes need not match the whole.

Molecule	VDR inh
O=Cc1c(N2CCSCC2)nc2ccccn2c1=O	5.5%
Cc1ccc(-n2nc3ccc(NC(=O)Cc4ccc(Cl)cc4)cc3n2)cc1	-0.8%
Cn1c(=O)c(=O)n(C)c2cc(S(=O)(=O)N3CCN(c4cccc(C(F)(F)F)c4)CC3)ccc21	11.1%
CC1(c2nnc(-c3cccc(Cl)c3)o2)CC(c2cccnc2)=NO1 (stereo unspecified)	-2.1%
COCCCNC(=O)C[C@H]1C[C@H](C(=O)N2CCOCC2)[C@@]2(C)c3[nH]c4cc(CCC(=O)N(C)C)ccc4c3CCN2C1=O	1.0%
Cc1cc(C)c(NC(=O)CNC(=O)COC(=O)Cc2cccs2)c(C)c1	-8.6%
COCCNC(=O)c1cc(-c2ccc3c(c2)OCO3)on1	0.4%
CCOc1ccc(S(=O)(=O)N2CCCCC2)cc1NC(=O)CN1C(=O)NC(C)(c2ccccc2)C1=O (stereo unspecified)	-10.2%
Cc1ccc(C(=O)NC2CCSC2=O)cc1 (stereo unspecified)	-6.3%
CCOC(=O)c1cnn(-c2nc(-c3ccc(C)cc3)cs2)c1C(F)(F)F	-4.2%
O=C(Cc1ccccc1)Nc1ccc(NC(=O)c2ccccc2)nc1	-6.2%
CCc1sc(Nc2cccc(C)c2)nc1-c1cc2cccc(OC)c2oc1=O	15.7%
CCN1CCN(CC(O)COc2ccc(C)c(C)c2)CC1 (stereo unspecified)	1.6%&9.2%
CCOC(=O)C1CCN(C(C(=O)NC2CCCC2)c2ccc(C)cc2)CC1 (stereo unspecified)	-22.6%
COC(=O)c1ccccc1NC(=O)c1ccc(-c2cccc(Cl)c2)o1	-16.2%
COc1ccc(C)cc1NS(=O)(=O)c1ccc2c(c1)n(C)c(=O)n2C	10.0%&12.2%
CN(C)/C=C(/C(=O)c1ccc(Cl)cc1)S(=O)(=O)c1ccc(Cl)cc1	-8.8%
O=C(CSc1nc2ccccc2c(=O)n1-c1ccc(OC(F)F)cc1)NCc1cccs1	-23.1%
CCOC(=O)N1CCN(S(=O)(=O)N2CCCC(C(=O)NCc3ccccc3OC)C2)CC1 (stereo unspecified)	-6.2%&-4.9%
CC(=O)c1cccc(NC(=O)c2sc3nc4n(c(=O)c3c2C)CCCCC4)c1	-14.7%
CCOc1ccc(CCNC(=O)c2cc3c(-c4ccccc4F)nn(C)c3s2)cc1OCC	4.8%
CCc1cc2c(Sc3nc4ccccc4s3)ncnc2s1	-6.9%
COc1ccc2c(c1)OCC(O)(c1ccccc1)C2=O (stereo unspecified)	-6.6%
CC(=O)OCC(=O)NCCCOc1cccc(CN2CCCCC2)c1	7.1%&-9.5%
COc1ccc2oc(=O)cc(CN3CCN(c4ccccc4F)CC3)c2c1	12.2%
Cc1ccc(-c2c3c(=O)n(C)c(=O)n(C)c3cn2-n2cnnc2)cc1	-1.7%
COc1ccc(-n2nc(C(=O)NCC(=O)NCCC3=CCCCC3)c3ccccc3c2=O)cc1OC	4.3%
CCN(C(=O)COC(=O)c1c2c(nc3ccccc13)CCC2)c1c(N)n(Cc2ccccc2)c(=O)[nH]c1=O	11.0%
COc1ccccc1NC(=O)CSc1nc2sc(C)c(C)c2c(=O)n1C	9.9%
O=[N+]([O-])c1cccc2c[nH]nc12	-13.0%
O=S1(=O)CCN2C=Nc3sc4c(c3C2=N1)CCCC4	4.8%
CSc1ccccc1OCc1cc(C(=O)NC2CCOC2)no1 (stereo unspecified)	-0.1%
COc1ccc(NC(=O)c2ccccc2C)cc1	7.6%
CC1Sc2ccc(S(=O)(=O)NCCc3ccccc3)cc2NC1=O (stereo unspecified)	10.2%
Cn1ccc(C(=O)N/N=C/c2cccnc2)n1	-11.6%
CCOC(=O)N1CCN(C(=O)COc2ccc3oc4c(c3c2)CCCC4)CC1	-21.2%
CCOC(=O)CSc1nc2sc3c(c2c(=O)n1-c1ccccc1)CCN(C)C3	0.7%
COc1ccc(C(=O)C2CCCN(Cc3sc(N4CCCC4)nc3Cl)C2)c(OC)c1 (stereo unspecified)	-8.1%
COc1ccc(C2(C(=O)Nc3ccc(C)cc3)CCOCC2)cc1	-18.9%
Cc1ccc(NC(=O)c2cccc(NC3=NC4CS(=O)(=O)CC4S3)c2)cc1 (stereo unspecified)	-17.1%
CC(=O)NC(Nc1nc2c(s1)CCCC2)(C(F)(F)F)C(F)(F)F	-11.5%
CN1CCN(Cc2coc3c(Cl)cc(Cl)cc3c2=O)CC1	-15.6%
COc1ccc(-c2coc3cc(O)c(OC)cc3c2=O)cc1	-8.7%
O=C(Nc1ccc(Cl)cc1)Nc1ccc(S(=O)(=O)Nc2ncccn2)cc1	-11.8%
CCc1ccccc1N1CC(c2nc3ccccc3n2CCCOc2ccc(Cl)cc2)CC1=O (stereo unspecified)	-0.5%
COc1ccccc1NS(=O)(=O)c1cccc(NC(=O)c2cncc(Br)c2)c1	38.3%[activator]
COc1ccc(-c2csc(N3CCOCC3)n2)cc1OC	-6.8%
Cc1cc(C)n(C(=O)CNC(=O)c2ccc(C(C)(C)C)cc2)n1	11.2%
Cc1nnc(N)nc1C	-15.2%
Cc1cccc(C#Cc2ccccc2)n1	-7.1%&-24.5%
CCOc1ccc2nc(NC(=O)CSc3nc4c(c(=O)n(C)c(=O)n4C)n3CC)sc2c1	0.4%
COc1ccccc1CCC(=O)N(C)CC(=O)Nc1ccc(F)cc1	9.2%
COC(=O)c1ccc(Cn2c(O)c(N=NC(N)=S)c3ccccc32)o1	-26.1%
CCN(CC)CCN1C(=O)C(O)=C(C(=O)c2cc3ccccc3o2)C1c1cccnc1 (stereo unspecified)	-4.6%
COc1ccc(Br)cc1C1C2C=CCCC2(C)C(=O)N1Cc1ccccc1 (stereo unspecified)	-27.1%
CC1CN(c2ccccc2)NC1=O (stereo unspecified)	9.1%
CCOC(=O)N1CCN(C(=O)c2ccc(N3C(=O)CCC3=O)cc2)CC1	-13.0%
CCN(Cc1ccccc1)C(c1cccc(C#N)c1)c1nnnn1C(C)(C)C (stereo unspecified)	-23.6%
COC(=O)C1=C(C(=O)OC)[C@@H]2N(C)c3ccccc3[C@@]23C[C@@H](C(=O)OC)N(C(=O)c2cc(C)oc2C)C3=N1	2.1%
O=C(c1ccco1)N1CCCC(N2CCN(c3ccccc3F)CC2)C1 (stereo unspecified)	7.3%

Fetched by compound from above (two):
Molecule	VDR inh
COc1ccccc1NC(=O)CSc1nc2sc(C)c(C)c2c(=O)n1C	9.9%
CCOC(=O)N1CCN(S(=O)(=O)N2CCCC(C(=O)NCc3ccccc3OC)C2)CC1 (stereo unspecified)	-6.2%&-4.9%

(further entries)
Molecule	VDR inh
O=[N+]([O-])c1ccccc1-c1ccc(C(=S)N2CCN(c3ccccc3)CC2)o1	79.4µM*
Cc1ccc(NC2(C#N)C(=O)Nc3ccccc32)cc1C (stereo unspecified)	-27.9%
CC1CC(C)CN(S(=O)(=O)N2CCCC(C(=O)NC(C)c3ccccc3)C2)C1 (stereo unspecified)	-10.8%
O=C(NNC(=O)C12CC3CC(CC(O)(C3)C1)C2)c1ccccc1O	33.0%[activator]
COc1ccc2c(CC(=O)O)cc(=O)oc2c1	-3.8%
COc1ccccc1CC(=O)c1ccccc1OC	-3.9%
O=C(Cn1cc([N+](=O)[O-])cn1)NCc1ccco1	-14.8%
COC(=O)CSc1nc2cc(OC)ccc2cc1C#N	8.7%
COC(=O)c1ccc(-n2c(CCC(=O)O)ccc2-c2ccccc2)cc1	16.9%
O=C(O)/C=C/C(=O)Nc1ccc(Oc2ccccc2)cc1	-11.2%
c1c2c(cc3sc(N4CCCCC4)nc13)OCCO2	4.3%
O=C(COC(=O)/C=C/c1ccc(C(F)(F)F)cc1)NC(=O)NCc1ccco1	-12.1%
CCN1C(=NCCCCO)N[C@@H](c2cccc(F)c2)C(C(=O)OC)=C1C	-17.7%
N#Cc1ccc(-c2csc(NNC(=O)c3ccc(Br)cc3)n2)cc1	1.7%
Cc1cc(C(=O)COc2ccccc2Cl)c(C)n1-c1ccc2c(c1)OCO2	-9.4%
COc1ccc(N(C(=O)c2snc(C(N)=O)c2N)C(C(=O)NC2CCCC2)c2cc(OC)ccc2OC)cc1 (stereo unspecified)	-4.0%
CC1C(=O)C(=O)C=CN1C (stereo unspecified)	-7.4%
CCC(=O)N1CCc2cc(Br)cc(S(=O)(=O)N(CC)Cc3ccccc3)c21	-1.1%
Cc1ccc(S(=O)(=O)NN2C(=O)c3ccccc3NC2c2ccccc2F)cc1 (stereo unspecified)	-7.6%
CCN(CC)c1ccc(C(=O)NNC(=O)CCl)cc1	-1.6%
CC(C)(C)NC(=O)c1c(F)c(F)c(F)c(F)c1F	1.8%
[O-]/C(=C(\C(=S)Nc1cccc2ccccc12)[n+]1ccccc1)c1ccc(OC(F)F)cc1	-19.0%
CCCSc1nnc(NC(=O)Cc2ccc(OC)c(OC)c2)s1	-2.0%
CN1CCC(N(C)C(=O)COc2ccccc2Cl)CC1	-6.7%
Cc1nnc(N(Cc2ccco2)C(=O)c2ccc(C#N)cc2)s1	-3.9%
COc1cc(NC(=O)c2cc3ccccc3o2)ccc1NC(=O)c1ccco1	11.8%
COc1ccc(C(=O)N/N=C(/C)c2cccc(NC(=O)c3ccccc3F)c2)cc1	-5.0%
Cc1ccc(N=c2c([N+](=O)[O-])nn(-c3ccc(Cl)cc3)n2O)cc1C	0.5%
Cc1ccc(C(=O)Nc2nc(COc3ccccc3)cs2)s1	6.7%
Cc1cccc(OCCN2C(=O)c3ccccc3C2=O)c1	14.2%
Cc1ccccc1Nc1sc(C(=O)c2ccc3c(c2)OCO3)c(N)c1S(=O)(=O)c1ccccc1	10.5%
CCNc1nc(C#N)nc(NCC)n1	-16.8%
O=C(CC(=O)c1ccccc1)Nc1cccnc1	6.0%
COC(=O)c1sc(N)c(C(=O)OC)c1COC(=O)CNS(=O)(=O)c1ccc(C)c(C)c1	-0.7%
CCn1ccnc1CNC(=O)CC1C(=O)NCCN1Cc1ccccc1F (stereo unspecified)	-3.5%
Cc1ccc(O)c(NC(=O)C2CC(c3cccc(Br)c3)=NO2)c1 (stereo unspecified)	-5.0%
COCCC(=O)N1CCC(Oc2ccc(C(=O)NCc3ccon3)cc2)CC1	-6.7%
CCN(CC(=O)NCc1cccs1)C(=O)c1cccc(S(=O)(=O)NC)c1	-5.8%
CCc1ccc(C(C)NC(=O)Cn2cnc3c(=O)n(C)c(=O)n(C)c32)cc1 (stereo unspecified)	-29.0%
CCCC(=O)Nc1ccc(Cl)c(NC(=O)c2cccnc2Cl)c1	-11.3%
CC(=O)N1N=C(c2c(-c3ccccc3)c3cc(C)ccc3[nH]c2=O)CC1c1ccco1 (stereo unspecified)	-10.6%
Cc1onc(-c2ccccc2)c1C(=O)N/N=C/c1ccc(O)c([N+](=O)[O-])c1	-17.7%
O=C(O)CCC(=O)Nc1ccc(N=Nc2ccccc2)cc1	20.2%
COC(=O)C(CCSC)NC(=O)C12CC3CC(CC(C3)C1)C2 (stereo unspecified)	1.2%
Nc1nc(SCC(=O)O)[nH]c(=O)c1NC(=O)c1ccco1	-9.2%
Cc1cccc(C)c1NC(=O)Cn1nc(C)c2sc3ccccc3c2c1=O	1.9%
Cc1cc(C)c(S(=O)(=O)c2cc(F)ccc2C)c(Cl)n1	-4.8%
CC[C@@H]1C(c2cccc(C)c2)=NN(c2ccccc2)[C@H]1C(=O)N1CCOC1=O	-4.6%&10.2%
COc1cccc(CNS(=O)(=O)c2cc3c(cc2C)NC(=O)CO3)c1	2.0%
CCCn1c(C)cc(/C=C(\C#N)C(=O)OCC(=O)Nc2cc(OC)c(OC)c(OC)c2)c1C	0.7%
CC1CCC(NC(=O)CCNS(=O)(=O)c2ccccc2)CC1 (stereo unspecified)	2.2%
O=C(CN1C(=O)c2cccc3cccc1c23)Nc1ccccc1	-5.8%
Nc1cccc(-c2cn3ccsc3n2)c1	6.8%
O=C(CN1C(=O)NC2(CCCc3ccccc32)C1=O)NCc1ccco1 (stereo unspecified)	26.9%
COc1cc(CNC(=O)C2CC2)ccc1OCc1ccccc1	-1.3%
O=C(NCc1ccccc1)c1ccc(CSc2ccccc2)o1	-3.7%
Cc1cccc(C)c1C(=NCCN(C)C)c1ccccc1	-9.1%
CC(C)c1ccccc1NC(=O)CN1C(=O)c2ccccc2C1=O	-3.7%
O=C(CCCc1nc2ccccc2s1)NNC(=O)CCN1CCN(Cc2ccccc2)CC1	?
COc1ccc(S(=O)(=O)N2CCOCC2)cc1NC(=O)CSc1nnc(NC2CC2)s1	-12.4%

Carrying on.
Molecule	VDR inh
CC(=O)c1cccc(NC(=O)c2c(-c3ccccc3)c(-c3ccccc3)nn(C)c2=O)c1	7.8%
CC(NC(=O)Cn1ncc2c3ccccc3n(Cc3ccc(F)cc3)c2c1=O)c1ccccc1 (stereo unspecified)	-3.5%
O=C(NC1CCCC1)c1ccc(Cl)c(S(=O)(=O)N2CCCCC2)c1	7.4%
COc1ccc(/C=C/C(=O)Nc2cccc(C(C)=O)c2)cc1	-3.0%
CCN(CC)c1ccc(NC(=O)COC(=O)c2ccc3ccccc3n2)cc1	1.9%
Cc1ccc(C)c(NC(=S)NC2CC3CCC(C2)N3Cc2ccco2)c1 (stereo unspecified)	8.8%
CC(C)(C)[C@H]1C=C(C(=O)NCc2ccccc2)O[C@@H](OCCCCO)C1	-17.8%
